# VACV mCherry inh: qHTS for Stage-Specific Inhibitors of Vaccinia Orthopoxvirus: mCherry Reporter Primary qHTS. Potency, µM (top dose mostly 36.5 µM), without a hit: at the top dose activity change, negative = inhibition, most hits filed as inhibitors. Vaccinia virus mCherry reporter infection, fluorescence; about a quarter of the inactives have no number. hit rate 0.63% among 310,000; active = well fitted inhibition curve with a large enough effect; inconclusive = small, poorly fitted or top-dose-only effect; inactive = no such curve, though single readings can be large or run the other way; tested in A549 cells; also: nearly all actives have a fitted effect of over 35% in size; inactives centre near -10
# VACV Venus inh: qHTS for Stage-Specific Inhibitors of Vaccinia Orthopoxvirus: Venus Reporter Primary qHTS | Potency, µM (titrated, usually from 36.5 µM), without a hit: at the top dose activity change, negative = inhibition, actives largely listed as inhibitors | AID 720580, 2013 | Vaccinia virus Venus reporter expression, fluorescence | hit rate 0.46% among 330,000; active means well fitted inhibition curve with a large enough effect; inconclusive means small, poorly fitted or top-dose-only effect; inactive means no such curve, though single readings can be large or run the other way; tested in A549 cells; also: nearly all actives have a fitted effect of over 30% in size; inactives centre near -10
# The depositor's hits bear a star; i = inactive; ? = inconclusive; . = no result given; & = joins results of further samples; [ ] = remark or other dose. % is scaled to controls: 0 for no effect and ±100 for the full control effect; potency is read from the fitted curve at half-maximal effect.
SMILES,VACV mCherry inh,VACV Venus inh
COc1cccc(CNc2cc(C)nc3nc(-c4ccc(C)cc4)nn23)c1,-11%,16%
COc1ccc(CN2CCNC(=O)C2CC(=O)NC2Cc3ccccc3C2)c(OC)c1 (configuration not stated),-5%,-7%
O=C(COC(=O)CCc1ccc(S(=O)(=O)N2CCOCC2)cc1)NC(=O)NC1CCCCC1,-2%,1%
CCN(CC)CCNC(=O)c1ccc(NC(C)=O)cc1,-7%&-12%,-8%&-14%&-8%
c1cncc(COC2CCCN(Cc3nc(-c4cccs4)no3)C2)c1 (configuration not stated),-19%,-15%
COc1cccc(NC(=O)CN(C)S(=O)(=O)c2ccc3nc(C)sc3c2)c1,-5%,-7%
COC(=O)c1sc(NC(=O)COc2cccc(C)c2)nc1C,i,-15%
Cc1ccc(C(=O)NC(=O)CSc2ncccc2C(=O)O)cc1,-21%,-19%
Cc1cc(C)cc(N2C(=O)N(CC(=O)c3ccc(Br)cc3)c3ccccc3S2(=O)=O)c1,-9%,-7%
CCCNC(C)(C)COC(=O)c1ccccc1,i,-12%
Cc1ccc(S(=O)(=O)N(C)C)cc1NC(=O)CSc1nc2ncc(Cl)cc2[nH]1,-24%,-15%
Cc1noc(C)c1NC(=O)N(C)C[C@H]1Oc2c(NC(=O)Cc3ccccc3)cccc2C(=O)N([C@H](C)CO)C[C@@H]1C,i,-15%
CC1(C)CC(=O)C2=C(C1)NC(=O)C21C(C(=O)OC(C)(C)C)=C(N)Oc2ccc(Br)cc21 (configuration not stated),-11%,-8%
COc1ccc(N=C2SC(CC(=O)Nc3ccccc3)C(=O)N2CCc2ccccn2)cc1 (configuration not stated),0%,-16%
N=c1c(S(=O)(=O)c2ccc(Br)cc2)cc2c(=O)n3ccccc3nc2n1Cc1ccccc1,i,-5%
C/C(=N\Nc1nc(N2CCOCC2)nc(N2CCOCC2)n1)c1cccc([N+](=O)[O-])c1,0%,2%
O=C(NCc1ccc(Cl)cc1)C1CCCCN1S(=O)(=O)c1ccccc1 (configuration not stated),-24%,-9%
O=C(NCc1ccc2c(c1)OCO2)C1CC(=O)N(c2ccc(O)cc2)C1 (configuration not stated),-15%,-11%
CCN(C(=O)COC(=O)c1ccc[nH]c1=O)c1cccc2ccccc12,-3%,3%
NC(=O)Nc1ccccc1C(=O)NCCc1ccccc1,-17%,-12%
Cc1ccc(NC(=O)CN2CCN(S(=O)(=O)c3ccc(C(C)C)cc3)CC2)cc1F,i,-3%
Cc1cccn2c(=O)c3cc(C#N)c(=NC(=O)c4ccco4)n(Cc4ccco4)c3nc12,-6%,-10%
Cc1cc(NC(=O)CS(=O)(=O)c2cn(Cc3cccc(Cl)c3)c3ccccc23)no1,-22%,-13%
COc1ccc(-n2c(SC(C)C(=O)N3CCOCC3)nc3ccccc3c2=O)cc1 (configuration not stated),-1%,-10%
COCCN1CC(C(=O)NCc2ccccc2-n2ccnc2C)CCC1=O (configuration not stated),i,-16%
COc1ccc(N2CCN(C(=O)c3ccc(Br)o3)CC2)cc1,-24%,-7%
O=C(NCC12CC3CC(CC(C3)C1)C2)c1nn2c(c1Cl)NC(c1ccco1)CC2C(F)(F)F (configuration not stated),-27%,-26%
Cc1cc(C(=O)O)c2ccccc2n1,-14%,-8%
CN(c1cccc(NC(=O)CN(c2cccc(Cl)c2)S(=O)(=O)c2ccc(Cl)cc2)c1)S(C)(=O)=O,-7%,?
Cn1c(SCC(=O)N2CCCC2)nnc1-c1cccs1,-8%,3%
Cn1c(C(=O)O)c(C=O)c2ccccc21,0%,-9%
NNc1nccc(Nc2ccccc2C(=O)O)n1,-14%,-6%
COc1cccc(CNC(=O)CNS(=O)(=O)c2ccc3nc(C)sc3c2)c1,-11%,-8%
Cc1ccc(C(=O)/C=C/c2c[nH]c3ccccc23)cc1,i,-13%
O=C(CSc1ccccc1)N1CCC(N2CCC(C(=O)N3CCCC3)CC2)CC1,-3%,-12%
Cc1cccc(NC(=O)CSCC(=O)N(C)CC(=O)Nc2cccc(F)c2)c1,-10%,-7%
CC(NC(=O)CCCN1C(=O)c2ccccc2C1=O)c1ccc2c(c1)CCCC2 (configuration not stated),.,2%
COC(=O)C(NS(=O)(=O)c1ccc(NC(C)=O)cc1)C(C)C (configuration not stated),i,-9%
CCN(CC)S(=O)(=O)c1cccc(C(=O)N/N=C(\C)c2ccc(O)cc2O)c1,?,?
COc1ccccc1C(=O)Nc1ccnn1C1CCN(C/C=C/c2ccccc2)CC1,-4%,-21%
CCc1csc(CNC(=O)C2CCC(=O)N(Cc3cccc(OC)c3)C2)n1 (configuration not stated),i,-11%
CCN1C(=O)c2ccccc2S(=O)(=O)c2ccc(C(=O)N3CCOCC3)cc21,4%,-11%
Cc1ccc(S(=O)(=O)N2CCOCC2)cc1NC(=O)CSc1nnc(N)s1,0%,0%
CCn1c(SCC(=O)Nc2nncs2)nnc1-c1ccco1,0%,5%
Cc1nn(-c2ccccc2)c2c1C(c1ccc(Br)s1)C(C#N)=C(N)O2 (configuration not stated),i,?
COc1ccc(NC(=O)NNC(=O)C(C)Oc2ccc3ccccc3c2)cc1OC (configuration not stated),-11%,-8%
O=c1[nH]c(=O)n(C2OC(CO)C(O)C2O)c2c1CCCC2 (configuration not stated),2%,6%
CCOC(=O)N1CCN(C(=O)c2ccc3c(c2)N(Cc2ccccc2)CCS3)CC1,-9%,-11%
COc1cccc(CNCc2ccccn2)c1OC,?,?
Cc1nc(Sc2ccc(Br)cc2)c(C#N)c(C)c1[N+](=O)[O-],-14%,-29%
CC(c1ccccc1)n1cc(C(=O)NCCCn2ccnc2)nn1 (configuration not stated),-16%,-21%
CC(C)CCNC(=O)CN(Cc1ccc(F)cc1)C(=O)CCC(=O)Nc1ccccn1,i,-12%
CC(C(=O)NCCC1=CCCCC1)N1C(=O)c2ccccc2C1=O (configuration not stated),-7%,-7%
Cc1ccccc1OCC(=O)Nc1cc(S(=O)(=O)N2CCCCC2)ccc1N1CCN(C)CC1,?,?
CCCOc1ccc(CNC(=O)C(NS(=O)(=O)c2cccs2)C(C)C)cc1 (configuration not stated),-8%,-2%
Cn1cccc1CC(=O)N/N=C/c1ccc(C(C)(C)C)cc1,-16%[7.34 µM],-15%[7.34 µM]
Cc1ccc(S(=O)(=O)NCc2ccc(C(=O)N3CCc4ccccc4C3)cc2)cc1,?,-15%
COc1cc(C)ccc1OCCOCCOc1cc(C)c(C)cc1Br,-3%,-15%
CCCN(C(=O)C1CSC2(C)CCC(=O)N12)c1c(N)n(Cc2ccccc2)c(=O)[nH]c1=O (configuration not stated),-11%,-19%
CCN1CCN(Cc2ccc(NC(=O)c3cc(NC(=O)c4cncc(-c5cccs5)c4)cc(OC)c3)cc2C(F)(F)F)CC1,?,?
# Remaining list, next part:
SMILES,VACV mCherry inh,VACV Venus inh
c1cc(CNCCNCc2ccncc2)ccn1,-10%,-17%
Cc1noc(C)c1CSc1nc2cc(S(=O)(=O)N3CCOCC3)ccc2o1,.,?
COc1cccc(N2CCN(C(=O)c3cc(-c4ccc(F)cc4)[nH]c3C)CC2)c1,?,?
Cc1ccccc1NC(=O)CN(C)S(=O)(=O)c1cccc2cccnc12,i,-14%
O=C(CS(=O)CC(=O)Nc1cccc2c1CCCC2)Nc1ccc(F)cc1 (configuration not stated),-21%,-19%
CCOC(=O)N1CCc2c(sc3c2c(=O)n(Cc2ccccc2)c(=O)n3Cc2cc(C)ccc2C)C1,-20%,-15%
Cc1cccc(-n2c(=O)c3ccccc3n(Cc3ccccc3)c2=O)c1,-2%,-12%
O=C1NN(c2ccccc2)C(=O)/C1=C/c1ccc(-c2ccc(Cl)c(C(=O)O)c2)o1,i,6%
COc1ccccc1N1CCN(S(=O)(=O)CCNC(=O)Cc2ccc(F)cc2)CC1,-28%,?
CCOc1ccccc1N(C)C(=O)CCS(=O)(=O)c1ccc2c(c1)NC(=O)C(C)S2 (configuration not stated),i[7.34 µM],-9%[7.34 µM]
CN(C)S(=O)(=O)c1ccc(C(=O)N2CC(=O)Nc3ccc(Br)cc3C2c2ccc(F)cc2)cc1 (configuration not stated),-19%,-10%
O=C(NCC1Cc2cccc(-c3nccs3)c2O1)c1ccnc(Cl)c1 (configuration not stated),-10%,-25%
O=C(NCc1cccnc1)c1cccc(Cl)c1,.,-22%
COc1cc(C)c(CN2CCC(n3nccc3NC(=O)C3CCOC3)CC2)cc1C (configuration not stated),i[7.34 µM],0%[7.34 µM]
O=C1c2ccccc2C(=O)N1CCC#Cc1ccc2cc(CCCO)oc(=O)c2c1,i,?

# Sorted by formula weight (largest number first): some entries from above
SMILES,VACV mCherry inh,VACV Venus inh
CN(C)S(=O)(=O)c1ccc(C(=O)N2CC(=O)Nc3ccc(Br)cc3C2c2ccc(F)cc2)cc1 (configuration not stated),-19%,-10%
CCOC(=O)N1CCc2c(sc3c2c(=O)n(Cc2ccccc2)c(=O)n3Cc2cc(C)ccc2C)C1,-20%,-15%
CCOc1ccccc1N(C)C(=O)CCS(=O)(=O)c1ccc2c(c1)NC(=O)C(C)S2 (configuration not stated),i[7.34 µM],-9%[7.34 µM]
COc1ccccc1N1CCN(S(=O)(=O)CCNC(=O)Cc2ccc(F)cc2)CC1,-28%,?
COc1cc(C)c(CN2CCC(n3nccc3NC(=O)C3CCOC3)CC2)cc1C (configuration not stated),i[7.34 µM],0%[7.34 µM]
O=C1NN(c2ccccc2)C(=O)/C1=C/c1ccc(-c2ccc(Cl)c(C(=O)O)c2)o1,i,6%
O=C1c2ccccc2C(=O)N1CCC#Cc1ccc2cc(CCCO)oc(=O)c2c1,i,?
COc1cccc(N2CCN(C(=O)c3cc(-c4ccc(F)cc4)[nH]c3C)CC2)c1,?,?
O=C(CS(=O)CC(=O)Nc1cccc2c1CCCC2)Nc1ccc(F)cc1 (configuration not stated),-21%,-19%
O=C(NCC1Cc2cccc(-c3nccs3)c2O1)c1ccnc(Cl)c1 (configuration not stated),-10%,-25%
Cc1cccc(-n2c(=O)c3ccccc3n(Cc3ccccc3)c2=O)c1,-2%,-12%
O=C(NCc1cccnc1)c1cccc(Cl)c1,.,-22%
c1cc(CNCCNCc2ccncc2)ccn1,-10%,-17%

# (continued)
SMILES,VACV mCherry inh,VACV Venus inh
CCOc1cc(C(=O)Nc2ccc(S(=O)(=O)Nc3cnc4ccccc4n3)cc2)cc(OCC)c1OCC,-1%,7%
Cc1cc(C)c(NC(=O)CSc2nc(=O)n(Cc3cccnc3)c3c2CCC3)c(C)c1,-19%,-8%
CN(C)CC(=O)N1c2ccccc2Sc2ccc(Cl)cc21,?,1%
CC(C)C(C(=O)NCc1ccco1)N(C(=O)CNS(=O)(=O)c1ccc(Cl)cc1)C1CCCC1 (configuration not stated),.,-25%
CCOC(=O)Nc1ccc2c(c1)C(=NNC(=S)NC)c1ccccc1-2,?,?
CCC(=O)c1ccc(N2CCN(C(=O)COc3ccc(F)cc3)CC2)c(F)c1,.,-11%
CC(=O)N/C(=C\c1ccccc1)C(=O)OCC(=O)NC(=O)c1ccccc1,i,-4%
CC1=C(C(=O)Nc2ccccc2)C(c2ccc(C)o2)n2c(s/c(=C\c3ccco3)c2=O)=N1 (configuration not stated),i,-10%
CCCCOC(=O)n1c(SCC(=O)N(CC)CC)nc2ccccc21,-4%,-10%
COc1ccc(C(=O)Nc2ccc(C)cc2C(=O)c2ccccc2)cc1,-20%,-12%
COc1cc(NC(=O)CSc2nnc(-c3ccncc3)n2C2CCCCC2)ccc1NC(=O)c1ccco1,i,-7%
CC(C)C(NC(=O)c1c(F)cccc1F)C(=O)N1CCN(c2ccccc2F)CC1 (configuration not stated),i,-13%
COc1ccc2c(c1)C(=O)N1[C@H]3c4cc(C)ccc4OC[C@@H]3[C@H](c3ccccc3)[C@]1(C)C(=O)N2,-18%,-45%
C=CC[n+]1ccn(-c2nc3ccccc3nc2[N-]S(=O)(=O)c2cccs2)c1,-29%,-8%
CCN(CC)S(=O)(=O)c1ccc(/C=C/C(=O)NC2CCCCC2)cc1,4%,-2%
O=C(CN(c1ccccc1)S(=O)(=O)c1ccccc1)NCCSc1nc2ccccc2s1,.,-15%
Cc1[nH]c(=S)[nH]c(=O)c1CCC1OCCO1,i,-16%
O=C(O)C1=C[C@@H](c2coc3ccccc3c2=O)C[C@@H](OCc2ccc(CO)cc2)O1,-13%,-7%
COC(=O)c1ccc(-n2nnnc2SCC(=O)Nc2ccccc2C(=O)OC)cc1,i,-4%
CC(=O)Nc1ccc(C(=O)N2CCc3cc4c(cc3C2C)OCCCO4)cc1 (configuration not stated),-17%,-16%
CC1(c2ccc(Cl)cc2)NC(=O)N(CC(=O)N2CCN(S(=O)(=O)c3ccccc3)CC2)C1=O (configuration not stated),-19%,-25%
C#CCOCCOCCOCCNc1nc(N2CCN(C(=O)Cn3cc(CCO)nn3)CC2)nc(N2CCN(C(=O)Cn3cc(CCCN=C(N)N)nn3)CC2)n1,i,-2%
CCN1C(=O)[C@H]2[C@@H](c3ccc(C(F)(F)F)cc3)N[C@]3(CCCN(CC4CCCCC4)C3=O)[C@H]2C1=O,i,-12%
COc1ccc(OC)c(CNC(=O)c2coc(=O)c3ccccc23)c1,-5%,-1%
O=C(Cc1ccccn1)c1ccc(F)cc1,-2%,-8%
CCOC(=O)c1cc(-c2ccc(OC)cc2)n(CCC(=O)Nc2ccc(OC)cc2OC)c1C,-6%,-8%
O=C(NNC1=Nc2ccccc2SC1)c1cccc([N+](=O)[O-])c1,-21%,-11%
Cc1cccnc1NC(=O)C1CC(=O)N(c2ccc3c(c2)OCCO3)C1 (configuration not stated),-2%,-21%
Cc1ccc(NS(=O)(=O)c2ccc(-n3cccn3)cc2)cc1C,-29%,-14%
COC(=O)c1c(NC(=O)CS(=O)(=O)c2ccccc2)sc(C)c1C,?,?

# Screens from PubChem.
